Screening data deposited in PubChem by National Center for Advancing Translational Sciences (NCATS).
TRPV1 PAM – human TRPV1 potentiation; potentiation, % at 8.33 µM; TRPV1-expressing cells, Fluo-8 calcium influx, capsaicin EC20 potentiation; host cell line not named in the record; control for the full effect not named in the record; Q8NER1; 0.02% of 320,000 active; active means potentiation above 80%; inconclusive means 30% to 80%; inactive means below 30%; further: 0% is about no effect
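Fluo-8 calcium influx in TRPV1-expressing cells, kinetic read (ex 480/em 520 nm). Compound added and read 3 min for agonist activity, followed by capsaicin at EC20 final and 2 min further read for enhancement.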
TRPML1 inh – human mucolipin-1 channel inhibition | Q9GZU1 | TRPML1-inducible cells, Ca2+ dye fluorescence, FDSS; stronger effect = lower value; inhibition of EC80 agonist-evoked calcium signal | activity change, negative = inhibition, % (test concentration not listed) | 0.02% of 390,000 active; in the data active means activity change below about -50%; inconclusive means about -30% to -50%; inactive means above about -30%;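 further: stimulus is agonist 54-4 at its EC80 concentration; on the % scale 0 is the no-effect control and ±100 the full control effect; compound concentration not given in the record; the text of the record puts the active cut at -80%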
Target sequence (Q9GZU1 whole entry, looked up): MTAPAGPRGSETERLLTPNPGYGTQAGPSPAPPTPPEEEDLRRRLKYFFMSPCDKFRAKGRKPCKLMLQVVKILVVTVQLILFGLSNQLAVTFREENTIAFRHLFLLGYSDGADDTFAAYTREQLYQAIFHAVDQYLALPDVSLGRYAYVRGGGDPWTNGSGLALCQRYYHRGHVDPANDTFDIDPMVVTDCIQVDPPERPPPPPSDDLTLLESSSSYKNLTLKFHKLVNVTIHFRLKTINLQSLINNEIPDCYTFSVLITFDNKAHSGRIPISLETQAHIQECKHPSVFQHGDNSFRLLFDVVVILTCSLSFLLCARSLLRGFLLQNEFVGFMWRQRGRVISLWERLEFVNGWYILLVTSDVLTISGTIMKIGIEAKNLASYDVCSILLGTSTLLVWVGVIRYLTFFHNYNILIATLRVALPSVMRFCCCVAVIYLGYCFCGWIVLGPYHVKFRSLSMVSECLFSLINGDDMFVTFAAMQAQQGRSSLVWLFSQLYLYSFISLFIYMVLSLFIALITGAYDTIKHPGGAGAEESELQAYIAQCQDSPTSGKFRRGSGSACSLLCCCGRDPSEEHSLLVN
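Tet-induced TRPML1-DL cells loaded with Ca8 no-wash calcium dye were read kinetically on FDSS. Compound addition was followed by EC80 agonist 54-4 (4 uM final); inhibition was read over 110 s.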
TRPML1 agonist – human mucolipin-1 channel agonism; Q9GZU1; TRPML1-expressing cells, Ca2+ dye fluorescence, FDSS; host cell line not named in the record; reference of the full effect not given here; activation, % (test concentration not listed); 0.12% of 410,000 active; AID 624414; in the data active = activation above about 50%; inconclusive = about 30% to 50%; inactive = below about 30%; further: 0% is about no effect; the text of the record puts the active cut at 80%
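Agonist activity was taken from a 110 s kinetic Ca2+ dye read on the FDSS after pinning compounds onto TRPML1-DL cells. The cells were seeded at 1,500/well with Tet inducer, incubated about 16 h, then dye-loaded at room temperature.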
Menin MLL FP FL – menin-MLL binding inhibition, fluorescein peptide; Fluorescence polarization, fluorescein-MLL peptide displacement from menin; FP activity change, % at 61.4 µM; 290,000 tested, under 10 active; AID 1766; inconclusive = falling polarisation curve, or a change in total fluorescence; inactive = total fluorescence flat and polarisation flat or rising; no compound was filed as active; the % refers to the polarisation; negative = inhibition;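 further: % of control where 0% means no effect; inhibitors lower the polarisation; unlabelled MLL peptide was the positive control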
PINK1 expr mod – changes PINK1 expression; Potency, µM (series often up to 76.6 µM), without a hit: top-dose activation (PINK1 increase), usual class: activators; AID 624263; 0.2% of 410,000 active; PINK1 immunofluorescence, high-content cytometry, 24 h; active = well fitted activation curve with a large enough effect; inconclusive = small, poorly fitted or top-dose-only effect; inactive = flat fitted curve, though single readings scatter; cell line not stated here;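 further: potency means the concentration at half of the fitted maximal effect; % of control where 0% means no effect; nearly all actives have a fitted effect of over 65% in size; a mitochondrial uncoupler was the plate control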
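Cells are seeded, rested 12 hours, then given compound at five concentrations or DMSO for 24 hours. After fixation, blocking and antibody staining, PINK1 amount and mitochondrial localization are scored; CCCP serves as control.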
Sfp PPTase inh – Sfp phosphopantetheinyl transferase inhibition. 3.5% of 310,000 active. Q9F4F7. Potency, µM, for inactives: max response, negative = inhibition, usual class: inhibitors. Biochemical Sfp PPTase activity, qHTS; active means well fitted inhibition curve with a large enough effect; inconclusive means small, poorly fitted or top-dose-only effect, or another doubt; inactive means no such curve, though single readings can be large or run the other way;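 further: the enzyme is Sfp with the accession as filed and its product quenches rhodamine fluorescence; potency means the concentration at half of the fitted maximal effect; 0% = enzyme reaction without inhibitor and -100% = no enzyme wells; top concentration of the series not given in the record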
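Fluorescence-quenching assay: 15 nM Sfp-PPTase preincubated 15 min at room temperature with compound, then 5 uM rhodamine-CoA and 12.5 uM BHQ-2-labelled YbbR peptide added. Fluorescence (ex 525/em 598 nm) read at start and after 30 min; difference gives rate.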
ClpP mod – qHTS Assay for Activators of ClpP | purified B. subtilis ClpP, FRET peptide cleavage, 20 min | Potency, µM (doses to about 57.5 µM), without a hit: at the top dose activity change, negative = active | 1.9% of 340,000 active | AID 651965, 2013; active = well fitted falling curve with a large enough effect; inconclusive = small, poorly fitted or top-dose-only effect; inactive = no such curve, though single readings can be large or run the other way; further: potency means the concentration at half of the fitted maximal effect; the source files actives as falling curves though it sought activators and does not explain the sign; nearly all actives have a fitted effect of over 65% in size; many hits overshoot -100%
Target sequence (P80244 whole entry, looked up): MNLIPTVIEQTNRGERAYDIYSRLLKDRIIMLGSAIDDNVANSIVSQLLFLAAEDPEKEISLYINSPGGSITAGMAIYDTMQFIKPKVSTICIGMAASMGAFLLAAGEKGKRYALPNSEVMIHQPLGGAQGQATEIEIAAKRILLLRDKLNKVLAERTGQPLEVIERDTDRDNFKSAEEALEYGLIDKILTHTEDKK
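ClpP 10 microg/mL final, pH 8 Tris/KCl buffer with BSA, glycerol, Tween-20; compound pinned in; FRET-FV substrate; RT 20 min; Ex320/Em430; ΔFRET vs ADEP 5.8 microM, DMSO, no enzyme.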
Numbers without * were called inactive; ? = inconclusive; . = not tested or not shown; [ ] = remark or other dose. The order is random (roughly 4.4% active in at least one column).

Compound,PINK1 expr mod,TRPV1 PAM,TRPML1 agonist,TRPML1 inh,ClpP mod,Sfp PPTase inh,Menin MLL FP FL
CCC1(CC)C(=O)N(C)C(=O)NC1=Nc1ccc(OC)cc1,-0.2%,6,-1.0,-7,0.2%,-8%,-2.3
Cc1c(NC(=O)c2ccccc2F)cccc1-c1nc2cccnc2s1,0.3%,.,1.2,-3,0.3%,.,.
CC(C)OCCCNC(=O)C1CCC(CNS(=O)(=O)c2ccccc2)CC1 (configuration not stated),0.5%,6,-0.3,-10,0.3%,3%,4.2
CCOc1ccc(OCc2ccc(C(=O)Nc3ccc(Cl)cn3)o2)cc1,4.8%[38.3 µM],1,3.6,-4,-24%,4%,0.9
Cc1ccc(/C=N/n2cnc3sc(-c4ccccc4)cc3c2=O)o1,-2.3%,7,-0.2,14,-14%,-6%,3.8
O=C(O)c1cccc(S(=O)(=O)NCc2cccs2)c1,-1.9%,10,-1.5,14,0.3%,13%,0.8
Cc1ccc(S(=O)(=O)Nc2ccccc2F)cc1C(=O)N1CCN(c2ccccc2O)CC1,-0.7%,-3,-0.7,-2,0.0%,.,.
Cn1c(CCN2CCCCC2)nc2cc(NC(=O)COc3ccc(Cl)cc3)ccc21,-1.1%,18,0.3,-18,-12%,13%,-0.4
CCC1Oc2ccc(C)cc2N(CC(=O)NCCN2CCOCC2)C1=O (configuration not stated),2.8%,3,-0.1,3,.,20%,-2.1
Nn1c(SCC(=O)Nc2cc(S(=O)(=O)N3CCOCC3)ccc2Cl)nnc1-c1cccnc1,0.2%,-7,0.2,6,-1.0%,2%,-1.9
Cc1ccc(-n2c(-c3ccc(Br)cc3)nc3c(cnn3-c3ccccc3)c2=O)cc1,0.9%,.,1.1,-18,?,.,.
CCOC(=O)CCNC(=O)N1CCC(CCOc2ccccc2)(C(=O)OCC)CC1,-3.1%,.,1.6,7,-2.6%,.,.

Single records, from the list above. Order of values: PINK1 expr mod | TRPV1 PAM | TRPML1 agonist | TRPML1 inh | ClpP mod | Sfp PPTase inh | Menin MLL FP FL
CCC1Oc2ccc(C)cc2N(CC(=O)NCCN2CCOCC2)C1=O (configuration not stated) in the list: 2.8% | 3 | -0.1 | 3 | . | 20% | -2.1
O=C(O)c1cccc(S(=O)(=O)NCc2cccs2)c1 in the list: -1.9% | 10 | -1.5 | 14 | 0.3% | 13% | 0.8

Continued.
Compound,PINK1 expr mod,TRPV1 PAM,TRPML1 agonist,TRPML1 inh,ClpP mod,Sfp PPTase inh,Menin MLL FP FL
Cc1ccc(-c2cc3nc(-c4ccccc4)cc(C(F)(F)F)n3n2)cc1,1.9%,.,0.4,-10,0.2%,.,.
CC(C)c1csc(CN2CCCC(CNC(=O)c3cccc4ccccc34)C2)n1 (configuration not stated),-1.1%,0,0.8,17,-5.2%,-1%,.
COc1ccccc1OCc1nnc(SCC(=O)N2CCCC2)o1,2.6%,-1,-0.4,4,.,20%,0.0
CCOc1ccccc1CNC(=O)C1CCCN(c2ncnc3onc(-c4ccc(F)cc4)c23)C1 (configuration not stated),-0.2%,.,1.8,2,-3.2%,.,.
CC1(C)CC(=O)C(C(c2ccco2)C2C(=O)CC(C)(C)CC2=O)C(=O)C1,-0.4%,-8,-1.0,2,0.8%,50µM*,?
CN(Cc1ccccc1)C(=O)c1cccc(NC(=O)Cc2ccc(NC(=O)C3CCCN(C(=O)C4CC4)C3)cc2)c1 (configuration not stated),1.1%,.,0.0,-4,-1.2%,.,.
O=C(NCCCN1CCOCC1)c1ccc2c(=O)n(-c3ccc(F)c(Cl)c3)c(=S)[nH]c2c1,4.3%,-4,-0.5,23,.,-5%,0.0
N=c1c2c(ncn1CCN1CCOCC1)Oc1ccc3ccccc3c1C2c1ccccc1 (configuration not stated),.,-3,0.0,-12,-1.3%,-6%,0.1
O=C(CN(c1ccccc1)S(=O)(=O)c1ccccc1)N1CCN(Cc2ccc3c(c2)OCO3)CC1,-2.1%,26,-0.6,-2,-2.4%,8%,2.4
CC(C)Cc1nnc(N)s1,-3.0%,.,0.3,-13,-27%,.,.
COC(=O)Nc1nn(-c2ccc(C)cc2)c(=O)c(C#N)c1C,-1.8%,7,0.6,-4,.,27%,4.3
OCC1(CO)COC(/C=C/c2ccccc2)=N1,2.8%,14,-0.2,-7,-1.3%,12%,0.1
COCCNc1oc(-c2ccc(OC)cc2)nc1C#N,4.9%,.,1.4,56,4.0%,.,.
COC(=O)c1ccc(NC(=O)CSc2nnc(CNc3ccc(OC)cc3)n2C)cc1,0.5%,-12,-1.0,-1,-1.4%,7%,1.8
COCCn1c(Cc2ccccc2)nnc1SCC(=O)N1CCCC1=O,0.7%,0,-0.6,25,1.4%,.,.
O=C(NCC1COc2ccccc2O1)C1CCCN(S(=O)(=O)c2cnc[nH]2)C1 (configuration not stated),0.1%,13,-0.5,-7,2.3%,-5%,1.2
CCn1c(SCc2cc(=O)[nH]c3ccccc23)nnc1C1CC1,0.0%,3,-0.2,28,?,3%,-2.6
CC(=O)Nc1nc2c(s1)C(=O)NCCC2,1.2%,1,0.0,11,.,15%,-3.2
CN(C(=O)c1ccc(NC(=O)Cc2cccc(NC(=O)C3CCN(C(=O)c4ccccc4)CC3)c2)cc1)C1CCCC1,1.8%,2,-0.7,10,1.3%,.,.
Oc1ccc2nc(Cc3ccccc3)[nH]c2c1,-0.5%,?,1.0,19,0.1%,6%,-0.8
CCOC(=O)C1C(=O)NCC2CCCC21 (configuration not stated),-1.0%,4,0.7,-8,-0.2%,6%,1.5
COc1ccc(S(=O)(=O)N2CCC(C)CC2)cc1OC,1.2%,-13,-0.5,4,2.1%,17%,-5.9
COc1ccccc1CNc1nc(NCc2ccc(C(C)C)cc2)c2sccc2n1,-0.1%,.,-0.7,24,?,.,.
COc1ccccc1C(=O)O/N=C(\N)c1ccccc1Cl,-1.4%,4,-1.0,-4,3.7%,-9%,-2.7
O=C1C2C3CCC(C3)C2C(=O)N1Cc1ccccc1 (configuration not stated),-3.5%,-11,0.0,-17,0.3%,-2%,1.6
COc1ccc(C(=O)c2ccc(O)cc2)c(O)c1O,2.1%,.,.,.,.,28µM*,0.2
O=[N+]([O-])c1ccc(O)c(-c2nn[nH]n2)c1,-0.4%,-4,-0.1,9,25µM*,-18%,4.6
COc1ccccc1Nc1nc(N)nc(CSC(=S)N2CC(C)CC(C)C2)n1 (configuration not stated),-0.5%,7,4.5,37,-5.5%,20%,0.4
Cn1nnc(NC(=O)c2ccco2)n1,5.8%,2,0.0,-14,0.2%,19%,-0.6
O=C(CSc1nc2c(c(=O)n1-c1ccc(Cl)cc1)SCC2)Nc1ccc2c(c1)OCCO2,3.9%,-31,0.2,30,-10%,13%,-1.6
CCn1c(CNC(=O)c2ccc(Cl)cc2)nnc1SCC(=O)N1CCOCC1,1.4%,2,-0.4,-10,0.7%,5%,.
CC(C)C[C@H]1CNC(=S)N1CC1CCN(CC2CCC(C(C)(C)C)CC2)CC1 (some centres not stated),6.6%,.,-1.3,-5,1.7%,.,.
Cn1c(Sc2ccccc2Cl)c(C=O)c2ccccc21,14%,9,-0.9,40,-0.6%,-28%,-0.5
CCCCC1CCC(C(=O)Nc2ccc(N3CCOCC3)cc2N2CCOCC2)CC1 (configuration not stated),1.3%,-5,3.8,-4,-0.6%,.,.
Cc1ccc(/C=N/NC(=O)c2nnn(-c3nonc3N)c2-c2cccs2)cc1,3.4%,-11,4.0,-6,-7.5%,2%,4.5
CCCS(=O)(=O)NCc1cn2c(C)csc2n1,-0.9%,-2,0.0,-8,0.4%,-7%,2.9
CCc1nnc(NC(=O)CSc2nnc(COc3ccccc3)n2Cc2ccccc2)s1,0.4%,.,0.4,11,-0.3%,8%,0.7
CSc1ccc(C2Nc3cccc4cccc(c34)N2)cc1,0.8%,-13,.,.,-3.3%,-22%,0.2
O=C(OC(C(=O)Nc1ccc(Cl)cc1C(F)(F)F)c1ccccc1)C1=COCCO1 (configuration not stated),11%,-3,1.9,7,-0.6%,12%,-1.1
S=C(NCCCn1ccnc1)NC1CCCCC1,-0.5%,2,0.1,-15,0.9%,22%,7.7
Cc1ccc(NC(=O)Nc2nnc(-c3ccccc3)o2)cc1,1.1%,-10,0.7,-10,.,2%,-1.2
CCOc1ccc(OCCn2c(SCC(=O)O)nc3ccccc32)cc1,1.6%,6,-0.4,4,-0.1%,13%,-3.1
Cc1nc2nc(C)c(CCC(=O)N3CCN(c4ccccc4)CC3)c(C)n2n1,-1.8%,10,0.2,6,-0.5%,18%,6.5
CC(=O)c1ccccc1OCCOc1ncnc2sccc12,2.2%,-2,-0.6,16,-1.2%,-6%,1.7
Cc1ccc2nc(CNC(=O)c3ccccc3)[nH]c2c1,0.2%,.,2.1,26,-5.1%,.,.
CCOC(=O)c1c(NC(=O)c2cc(=O)c3c(C)cc(C)cc3o2)sc2c1CCC2,32µM*,.,2.7,-14,-2.0%,.,.
Cc1ccc(Cn2ccc(NC(=O)c3c(-c4ccccc4Cl)noc3C)n2)cc1,0.6%,-17,-0.1,-1,-1.2%,17%,1.9
CCCCCCSc1ccc(-c2nc3ccc(Cl)cn3c2NC2CCCCC2)cc1,4.7%,.,-0.4,-7,7.3%,.,.
COCc1cc(C)nc(SCC(=O)Nc2ccccc2N2CCOCC2)c1C#N,-0.6%,-9,2.4,-3,1.3%,8%,.
O=c1c2c(-c3ccccc3)csc2nc2c3ccccc3c(NCCN3CCOCC3)nn12,-2.2%,-6,0.2,34,.,35µM*,-9.9
Cc1ccccc1CSCC(=O)NC(=O)NC(C)(C)C,-5.1%[38.3 µM],-2,2.0,8,-0.3%,0%,7.1

Ordered by the number under Sfp PPTase inh (low to high): four of the compounds above.
Compound	Sfp PPTase inh
Cc1ccccc1CSCC(=O)NC(=O)NC(C)(C)C	0%
Cc1ccc(NC(=O)Nc2nnc(-c3ccccc3)o2)cc1	2%
COCc1cc(C)nc(SCC(=O)Nc2ccccc2N2CCOCC2)c1C#N	8%
O=C(OC(C(=O)Nc1ccc(Cl)cc1C(F)(F)F)c1ccccc1)C1=COCCO1 (configuration not stated)	12%
